# Source: PubChem BioAssay (National Center for Advancing Translational Sciences (NCATS))
# miR-21 FLuc: qHTS Assay for Modulators of miRNAs and/orActivators of miR-21; HeLa miR-21 FLuc reporter, luciferase, 48 h; Potency, µM (top dose mostly 38.3 µM), without a hit: top-dose reporter change, positive = more light; 340,000 tested, under 10 active; AID 2288, 2010; active = well fitted rising curve with a large enough effect; inconclusive = small, poorly fitted or top-dose-only effect; inactive = no such curve, though single readings can be large or run the other way;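 note: % of control where 0% means no effect; miR-21 action dims this reporter so a rising signal means less miR-21 action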
#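 Luminescence from a firefly luciferase reporter carrying a miR-21 binding site downstream, stably expressed under a CMV promoter in HeLa cells that make miR-21 endogenously, reports miRNA modulation after 48 h compound exposure up to approximately 40uM final.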
# Rango complex inh: qHTS Assay for Inhibitors of Rango (Ran-regulated importin-beta cargo) - Importin beta complex formation; Rango CFP/YFP FRET sensor + importin beta, 45 min; Importin subunit beta-1 (Homo sapiens), Q14974; Potency, µM (titrated, usually from 92.2 µM), for inactives: at the top dose inhibition of complex formation; 340,000 compounds, 0.031% hits; active = rising FRET ratio curve, often small or poorly fitted; inconclusive = mostly compound fluorescence or quenching in the first reads; inactive = flat curves in all reads;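 note: potency is the fitted concentration of half-maximal effect; 0% = DMSO wells and 100% = buffer wells lacking importin beta; nearly all actives have a fitted effect of over 15% in size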
# Target sequence (Q14974 whole entry, looked up): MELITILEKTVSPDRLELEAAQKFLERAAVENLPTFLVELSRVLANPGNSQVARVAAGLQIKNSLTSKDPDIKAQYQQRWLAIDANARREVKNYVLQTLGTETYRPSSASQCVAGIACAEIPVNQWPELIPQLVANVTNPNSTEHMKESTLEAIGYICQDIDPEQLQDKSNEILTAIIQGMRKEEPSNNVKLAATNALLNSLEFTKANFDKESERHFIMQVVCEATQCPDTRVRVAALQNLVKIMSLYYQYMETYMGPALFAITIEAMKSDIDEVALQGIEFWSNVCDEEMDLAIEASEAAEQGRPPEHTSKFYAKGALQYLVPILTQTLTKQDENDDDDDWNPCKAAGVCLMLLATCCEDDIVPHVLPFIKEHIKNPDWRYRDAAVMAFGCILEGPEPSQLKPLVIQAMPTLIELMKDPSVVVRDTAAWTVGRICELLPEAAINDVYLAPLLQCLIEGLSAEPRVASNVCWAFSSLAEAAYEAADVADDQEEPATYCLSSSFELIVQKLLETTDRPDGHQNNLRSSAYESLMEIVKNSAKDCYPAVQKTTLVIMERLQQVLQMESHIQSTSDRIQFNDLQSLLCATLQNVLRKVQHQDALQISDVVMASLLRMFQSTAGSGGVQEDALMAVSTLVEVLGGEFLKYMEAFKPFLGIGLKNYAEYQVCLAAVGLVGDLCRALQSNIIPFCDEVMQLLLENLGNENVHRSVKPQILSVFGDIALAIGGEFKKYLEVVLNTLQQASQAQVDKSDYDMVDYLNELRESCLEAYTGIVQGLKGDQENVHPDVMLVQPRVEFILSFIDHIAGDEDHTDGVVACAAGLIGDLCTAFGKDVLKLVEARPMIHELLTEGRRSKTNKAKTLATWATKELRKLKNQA
#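 FRET biosensor Rango (snurportin 1 IBB between N-terminal EYFP and C-terminal Cerulean), 50 nM in PBS/1 mM DTT/0.02% Tween-20/0.1% BSA, preincubated 5 min RT with compound; 0.125 microM importin beta added, 45 min RT, CFP/YFP FRET ratio read.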
# Rango release inh: qHTS Assay for Inhibitors of RanGTP induced Rango (Ran-regulated importin-beta cargo) - Importin beta complex dissociation. Snurportin-1 (Homo sapiens) + GTP-binding nuclear protein Ran (Homo sapiens) + Importin …. Biochemical FRET Rango-importin beta, RanGTP-induced dissociation. Potency, µM (titrated, usually from 46.1 µM), inactives show at the highest dose activity change, negative = inhibition. 340,000 compounds, 0.071% hits. AID 540253, 2011; active means falling FRET ratio curve, often poorly fitted, with flat reads before Ran was added; inconclusive means other falling curves, or compound fluorescence or quenching; inactive means flat or rising ratio curve;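 note: potency is the fitted concentration of half-maximal effect; % of control where 0% means no effect; nearly all actives have a fitted effect of over 45% in size; -100% = wells without RanGTP and RCC1; the record marks most hits as doubtful in a second field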
#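 Rango (0.1 uM)–importin beta (0.25 uM) complex; RanGTP-RCC1 trigger; 45 min RT; CFP/YFP FRET read.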
# GLA inh pH 4.5: qHTS Assay for Inhibitors of Human alpha-Galactosidase at pH 4.5. Alpha-galactosidase A (Homo sapiens), P06280. purified enzyme, 4-MU-alpha-Gal fluorescence, pH 4.5. activity change, negative = inhibition, % at 105 µM. 230,000 tested, under 10 active. AID 1467, 2008; inconclusive = small, poorly fitted or top-dose-only inhibition, or a rising curve; inactive = flat fitted curve, though single readings scatter; no compound was filed as active;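 note: 0% = full activity with enzyme and -100% = basal without enzyme; dose as in the result columns while the protocol names 77 µM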
# The depositor's hits bear a star; ? = inconclusive; / = no result given; & = joins results of further samples. Only part of the results is shown; count on the stated rates, not on these rows.
SMILES,miR-21 FLuc,Rango complex inh,Rango release inh,GLA inh pH 4.5
Cc1ccc(-n2ncc(C(=O)Nc3ccc(Cl)cc3)c2C2CCNCC2)cc1C,1%,-2.3%,-6%,1
CCN1CCN(c2ccc(S(=O)(=O)N3CCCCC3)cc2NC(=O)c2cccc(NC(C)=O)c2)CC1,/,-1.9%,19%,/
COC(=O)c1sc2nc(CSc3nc4ccc(C)cc4[nH]3)[nH]c(=O)c2c1C,-2%,0.4%,-22%,-1
Cc1ccc(C(=O)O/N=C\c2ccc(N3CCOCC3)c([N+](=O)[O-])c2)cc1,-3%,2.2%,?,-1
O=C1CCN(Cc2ccc(Br)cc2)CCN1[C@H](CO)c1ccccc1,7%,-1.0%,-21%,/
COc1cccc(N=Nc2ccc(O)c3ncccc23)c1,-11%,1.3%,-4%,/
Cc1cccc2nc(CSc3nc4cc([N+](=O)[O-])ccc4s3)cn12,-9%,-1.7%,-7%,-6
COC(=O)[C@@]12CCCCN1[C@H](c1ccc(-c3ccc(C(C)=O)cc3)c(OC)c1)[C@@H]1C(=O)N(C)C(=O)[C@@H]12,/,-1.6%,-13%,/
CCS(=O)(=O)Nc1ccc(-c2nc3cccnc3s2)cc1,-38%,?,?,?
COc1ccc(N(CC(=O)N/N=C/c2cc(Br)c(C)o2)S(=O)(=O)c2ccc(NC(C)=O)cc2)cc1,1%,?,?,-23
CCOC(=O)C1CCCN(S(=O)(=O)c2ccc(S(=O)(=O)N(CC)CC)cc2)C1 (stereo not given),22%,1.2%,3%,1
CC(C)n1cnc2cc(NCc3ccco3)ccc21,-71%,?,-18%,8
O=C1CCCCCCC1Sc1ccccc1[N+](=O)[O-] (stereo not given),-1%,-3.5%,-12%,3
CCOC(=O)Nc1ccc(C)cc1NC(=O)OCC,-3%,1.6%,18%,-18
CN(C)c1ccc(/C=N/N=C(N)N)cc1[N+](=O)[O-],-1%,0.1%,3%,2
COc1ccccc1C1(CC(=O)O)CCOC(C)(C)C1 (stereo not given),0%,4.5%,-2%,-2
COc1cc(OC)cc(C(=O)N2CCN(c3ccccc3F)CC2)c1,14%,?,-1%,3
COc1cc(C(=S)N2CCOCC2)cc(OC)c1OS(=O)(=O)c1ccc(NC(C)=O)cc1,-4%,5.5%,-1%,5
COc1ccccc1NC(=O)CSc1nnc(CC(=O)Nc2ccccc2F)n1C,-1%,-1.7%,-5%,/
Cc1cc([N+](=O)[O-])cc(C)c1OCC(=O)N/N=C/c1ccc(OC(=O)c2ccccc2Br)cc1,-2%,0.1%,-9%,3
COc1ccc(N2C(=O)C(CC(=O)Nc3ccccc3)N(Cc3cccs3)C2=O)cc1 (stereo not given),-2%,-2.7%,-5%,-5
COc1ccc(C2=NS(=O)(=O)N(C)C(C(=O)N3CCC(C(N)=O)CC3)=C2)cc1,-5%,3.0%,-2%,/
CN(C)c1nc(OCCNC(=O)Nc2ccccc2)nc(N(C)C)n1,-10%,0.3%,20%,3
Cc1cc(C)cc(NC(=O)Nc2ccc(Cl)cn2)c1,-2%,-3.5%,0%,1
CCOC(=O)c1sc(-n2[nH]c(C)cc2=O)nc1C,0%,-1.3%,-8%,2
COc1ccc(C)cc1NC(=S)N1CC(C)OC(C)C1 (stereo not given),-5%,4.1%,14%,/
CC(=O)c1cccc(S(=O)(=O)Nc2c(C)nn(C)c2C)c1,/,-0.2%,5%,/
CSc1ncccc1C(=O)OCC(=O)NC1CCS(=O)(=O)C1 (stereo not given),-5%,-0.7%,-12%,4
Cc1ccnc(Nc2nc(-c3ccc(F)cc3)cs2)c1,27%,1.7%,5%,/
COc1ccc(C2=NN(C(C)=O)C(c3ccccc3)C2)cc1 (stereo not given),-60%,2.3%,13%,/
O=C(c1ccccc1F)n1c2c(c3ccccc31)CCCC2,17%,-3.2%,-9%,/
CN(CCOc1ccccc1)CC(=O)Nc1cc([N+](=O)[O-])ccc1Cl,-5%,1.1%,-10%,1
CN(C)c1nc(/C=C(\C#N)C(N)=O)c(Cl)n1-c1ccc(F)cc1,2%,?,?,-5
O=C(O)CNS(=O)(=O)c1ccc(Br)s1,0%,4.8%,-6%,-2
Cc1ccc(/C=C/C2=Cc3c(sc(NC(=O)CSc4n[nH]c(N)n4)c3C#N)C(C)(C)C2)o1,-10%,/,/,-11
COc1ccc(N2CCN(C(=O)c3cc(=O)c4cc(C)cc(C)c4o3)CC2)cc1,0%,0.1%,1%,/
CCCn1c(SCC(=O)NC2CCCC2)nc2c1c(=O)n(C)c(=O)n2C,0%,-2.9%,-1%,/
COc1cccc(Nc2nc3ccccc3nc2NS(=O)(=O)c2ccc(NC(C)=O)cc2)c1,-22%,-2.0%,-17%,/
COc1cc(Cl)c(C)cc1NC(=O)COC(=O)C(NS(=O)(=O)c1ccc(Cl)cc1)C(C)O (stereo not given),-3%,-0.5%,9%,-7
COc1ccccc1CCNC(=O)C1CCC(=O)N(Cc2cccc(F)c2)C1 (stereo not given),-31%,-1.5%,-23%,/
NC(=O)C1=C[C@@H](C2CCCCC2)C[C@@H](OCc2ccc(CO)cc2)O1,/,-0.4%,-7%,/
COc1ccc(CCNC(=O)CN(c2ccccc2)S(C)(=O)=O)cc1OC,2%,1.8%,1%,2
CN(CC(=O)Nc1ccccc1Oc1ccccc1)Cc1ccccc1F,-6%,2.7%,-6%,-12
CN(C)c1nc(SCC#N)nc(N2CCOCC2)n1,-13%,5.4%,1%,8
O=C(Nc1cc(Cl)ccc1N1CCCC1)C1=NN(c2ccccc2)C(=O)CC1,0%,0.0%,3%,/
O=C(O)CCn1c(=O)c2ccccc2c2ccccc2c1=O,4%,-1.2%,9%,-6
O/N=C(/c1ccc(Cl)cc1)C1CC1c1ccccc1 (stereo not given),-25%,-0.3%,11%,/
CC(=O)C[C@H](O)CC(=O)[C@@H]1OC(=O)CCCCCc2ccccc21,/,-0.5%,-15%,/
C/C=C/c1c(F)c(F)c(Oc2ccc(C(=O)O)cc2)c(F)c1F,0%,4.6%,7%,5
O=C(N1CCOCC1)N1CCN(S(=O)(=O)N2CCCCC2)CC1,-9%,-0.4%,-18%,3
Cc1oc(-c2ccccc2F)nc1CSCC(=O)NCc1ccc2c(c1)OCO2,-1%,3.8%,15%,3
CN1CCN(c2ccc(NC(=O)COc3ccccc3Cl)cc2)CC1,-25%,2.5%,0%,-5
O=C1NC2=C(CCc3ccccc32)C(c2ccccc2)N1 (stereo not given),-13%,-4.3%,2%,-8
CC(C)N(C(=O)Cn1cc(S(=O)(=O)CC(=O)N2CCOCC2)c2ccccc21)C(C)C,-1%,1.8%,-13%,/
Cc1ccc(S(=O)(=O)N2CCCC2C(=O)N2CCCCCC2)cc1 (stereo not given),-3%,-0.7%,27%,3
COc1ccc(COC(=O)c2c(C)nn(-c3ccccc3)c2Cl)cc1,-23%,-5.4%,-3%,/
OC(CNCCc1ccc(Cl)cc1)COc1cc(Cl)ccc1Cl (stereo not given),3%,0.3%,24%,/
O=C1C=CC(=O)N1c1ccccc1N1C(=O)C=CC1=O,/,1.7%,2%,/
CCCCn1c(N)c(NCC)c(=O)[nH]c1=O,2%,?,?,13
CSC(=NCCCN1CCOCC1)NS(=O)(=O)c1cccs1,-9%,1.9%&-0.9%,7%&2%,1

# An excerpt of these results, with values under each structure:
# Values in the order – miR-21 FLuc, Rango complex inh, Rango release inh, GLA inh pH 4.5
NC(=O)C1=C[C@@H](C2CCCCC2)C[C@@H](OCc2ccc(CO)cc2)O1
→ /, -0.4%, -7%, /
COc1ccc(CCNC(=O)CN(c2ccccc2)S(C)(=O)=O)cc1OC
→ 2%, 1.8%, 1%, 2

# Of the compounds above, these contain a furan ring, fused or not:
SMILES,miR-21 FLuc,Rango complex inh,Rango release inh,GLA inh pH 4.5
COc1ccc(N(CC(=O)N/N=C/c2cc(Br)c(C)o2)S(=O)(=O)c2ccc(NC(C)=O)cc2)cc1,1%,?,?,-23
CC(C)n1cnc2cc(NCc3ccco3)ccc21,-71%,?,-18%,8
Cc1ccc(/C=C/C2=Cc3c(sc(NC(=O)CSc4n[nH]c(N)n4)c3C#N)C(C)(C)C2)o1,-10%,/,/,-11

# Following part:
SMILES,miR-21 FLuc,Rango complex inh,Rango release inh,GLA inh pH 4.5
CC[C@@H](C)C(NC(=O)OC(C)(C)C)c1cn([C@@H](CCC(=O)OC(C)(C)C)C(=O)N2CCN(C(=O)OC(C)(C)C)CC2)nn1 (stereo not given in full),2%,0.3%,2%,-14
CCOC(=O)n1c(=O)oc2ccc(Cl)cc21,-9%,1.7%,0%,-1
COc1ccc(C(=O)OCC(=O)NC(C)CCc2ccccc2)cc1 (stereo not given),0%,5.3%,-6%,/
Cc1ccc(C(=O)N2CCCC(N(C)Cc3ccccc3)C2)s1 (stereo not given),1%,-1.9%,2%,/
CC(C)CC1NC(=O)N(CC(=O)N2CCN(S(=O)(=O)c3ccc(Cl)cc3)CC2)C1=O (stereo not given),-4%,-1.1%,-14%,5
CC(=O)Nc1ccc(NC(=O)CSCc2cnn(-c3ccccc3)c2-n2cccc2)cc1,0%,0.6%,9%,-7
Nc1nnnn1/N=C/c1ccccc1OCc1ccc(Cl)cc1,-32%,2.2%,7%,-15
Nc1ccccc1SC1CC(=O)N(c2ccc(Cl)c(Cl)c2)C1=O (stereo not given),11%,0.2%,0%,-5
Cc1cccc(NS(=O)(=O)c2cccc(C(=O)Nc3cccc(C(=O)O)c3)c2)c1,-1%,?,25%,/
CC(=O)NCC1CCCN(C(=O)c2oc3c(F)cccc3c2C)C1 (stereo not given),-11%,-0.3%,4%,/
Cc1nc2c(cnn2-c2ccccc2Cl)c(=O)n1-c1ccc(N2CCC(C)CC2)cc1,-1%,3.6%,4%,-14
Cc1cc(Nc2ccc(F)cc2)nc(N)n1,-19%,3.4%,7%,3
Nc1nonc1-n1nnc(C(=O)N/N=C/c2cccc(Cl)c2)c1CSc1ccccc1,-2%,0.3%,11%,3
CCOc1cccc(CN2CCC(CCC(=O)NC3CC3)CC2)c1O,0%,-0.4%,-13%,/
COc1cccc(CSc2ccc(S(=O)(=O)N3CCOCC3)cc2C(=O)NCC2CCCO2)c1OC (stereo not given),-9%,0.5%,-14%,-25
O=C(N/N=C1\C(=O)c2cccc3cccc1c23)c1ccc(O)cc1,-11%,-6.5%,-21%,-6
CCCCCC(=O)N/N=C/c1ccc([N+](=O)[O-])o1,27%,-4.5%,-8%,-9
Cc1ccc(C2CC(c3cccs3)=NN2S(=O)(=O)c2ccc(C)cc2)cc1 (stereo not given),-19%,-3.0%,0%,4
O=C(CSc1ccc(-c2ccccn2)nn1)c1ccccc1,-28%,-2.2%,5%,3
C[C@H](CO)N1C[C@H](C)[C@@H](CN(C)S(=O)(=O)c2cccs2)Oc2c(NS(=O)(=O)c3ccccc3)cccc2C1=O,/,-0.7%,-8%,/
COc1cc2c(cc1OC)C(SC)=NC(C)(C)C2,-2%,?,10%,-15
COc1ccc(NC(=O)c2ccc(COCC(F)(F)C(F)F)cc2)cc1OC,-3%,-1.1%,-2%,6
C1CC2CN(c3nc4nonc4nc3N3CCSCC3)CCN2C1 (stereo not given),0%,?,-5%,0
CC1CCCN(S(=O)(=O)c2ccc(NC(=O)C3CCN(C(=O)c4ccco4)CC3)cc2)C1 (stereo not given),?,0.2%,4%,/
CCS(=O)(=O)Nc1ccc(Cc2ccc(NS(=O)(=O)CC)cc2)cc1,15%,-2.5%,0%,-3
O=C(OCC(=O)N1CCN(c2ccccc2)CC1)c1ccc(O)cc1O,4%,-5.8%,-2%,/
CC(C)Nc1ncnc2c1nnn2Cc1ccccc1,-22%,2.7%,-9%,0
COc1cc(OC)c(C(=O)NC2CCCCCC2)cc1OC,-10%,4.8%,1%,-1
